# Vaccinia Venus: qHTS for Stage-Specific Inhibitors of Vaccinia Orthopoxvirus: Venus Reporter Primary qHTS; Vaccinia virus Venus reporter expression, fluorescence; Potency, µM (titrated, usually from 36.5 µM), for inactives: at the top dose activity change, negative = inhibition, actives largely listed as inhibitors; actives 0.46% (n = 330,000); AID 720580, 2013; active means well fitted inhibition curve with a large enough effect; inconclusive means small, poorly fitted or top-dose-only effect; inactive means no such curve, though single readings can be large or run the other way; tested in A549 cells; also: nearly all actives have a fitted effect of over 30% in size; inactives centre near -10
# VACV mCherry inh: qHTS for Stage-Specific Inhibitors of Vaccinia Orthopoxvirus: mCherry Reporter Primary qHTS | Vaccinia virus mCherry reporter infection, fluorescence; about a quarter of the inactives have no number | actives 0.63% (n = 310,000) | Potency, µM (titrated, usually from 36.5 µM), inactives show at the highest dose activity change, negative = inhibition, hits mostly inhibitors; active = well fitted inhibition curve with a large enough effect; inconclusive = small, poorly fitted or top-dose-only effect; inactive = no such curve, though single readings can be large or run the other way; tested in A549 cells; also: nearly all actives have a fitted effect of over 35% in size; inactives centre near -10
# * marks the source's active call; other numbers are inactive results; i = inactive; u = inconclusive; x = no result given; & = joins results of further samples; [ ] = another dose, or the depositor's remark. % is scaled to controls: 0 for no effect and ±100 for the full control effect; potency is read from the fitted curve at half-maximal effect.
# Under each structure – Vaccinia Venus | VACV mCherry inh
- CC1=C(C(N)=O)C(c2ccc(C(C)C)cc2)n2nc(SCc3ccccc3F)nc2N1 (stereo not given)
  2.9% | -8.8%
- COc1ccccc1S(=O)(=O)c1ccccc1[N+](=O)[O-]
  26.0% | -8.9%
- CC(C)c1ccc(CNC(=O)C(=O)NCCCn2ccnc2)cc1
  0.8% | -10.3%
- CCCCOc1ccc(Cn2c(=O)sc3ccccc32)cc1OC
  -17.0% | -11.9%
- CC1CCN(C(=O)CN2C(=O)COc3ccc(Cl)cc32)CC1
  -7.3% | -14.8%
- CCC/C=C/c1ccc(CN2C(CC(C)C)C(=O)N(Cc3cn(CCC4OCCCO4)nn3)CCS2(=O)=O)cc1 (stereo not given)
  u | -16.4%
- O=c1[nH]cnc2scc(-c3ccc(Br)cc3)c12
  -3.4% | -9.4%
- NC(N)=N/N=C/c1ccc(OCc2ccccc2)c(OCc2ccccc2)c1
  -14.8% | u
- COc1ccc(C(=O)NNc2ccccc2)cc1
  -7.6% | -13.9%
- COc1ccc(OC)c(S(=O)(=O)Nc2ccc3oc(C)c(C(C)=O)c3c2)c1
  -8.0% | -13.1%
- COC(=O)[C@@]1(Cc2ccccc2)[C@H]2C(=O)N(C)C(=O)[C@H]2[C@H]2CN(C)C(=NCc3ccccc3)N21
  0.0% | 0.0%
- COc1c(O)cc2oc(-c3ccc(O)c(O)c3)cc(=O)c2c1O
  -13.5% | -13.3%
- COc1ccc(Oc2ccc(N/C=C3\CCCC3=O)cc2)cc1
  -16.9% | -8.5%
- O=C(Nc1ccc(F)c(Cl)c1)C1CCCN1S(=O)(=O)c1ccc(F)cc1 (stereo not given)
  2.4% | -15.5%
- COc1ccc(CNC(=O)CN(Cc2ccco2)C(=O)CNS(=O)(=O)c2ccc(F)cc2)cc1
  -1.0% | -13.6%
- O=C(COc1ccccc1CNC[C@H]1O[C@@H](n2ccc(=O)[nH]c2=O)[C@H](O)[C@@H]1O)N1CCCCC1
  4.0% | 16.6%
- COc1ccc(C2CC(=O)C=C3c4ccc(OC)cc4CCC32)cc1 (stereo not given)
  -19.7% | -4.8%
- Cc1noc(C)c1COc1cccc(C(=O)OC(C)C#N)c1 (stereo not given)
  -10.5% | -14.8%
- COc1ccc(S(=O)(=O)N2CCOCC2)cc1N(C)S(=O)(=O)c1ccc(C)cc1
  -6.6% | -15.5%
- CCOC(=O)Cn1cc(C#N)c2ccccc21
  -4.4% | i
- COc1ccccc1CC1CC(=O)N(c2ccc([N+](=O)[O-])cc2)C1=O (stereo not given)
  -18.5% | -1.9%
- CN1CCN(/N=C/c2c(O)n(C)c(=O)n(C)c2=O)CC1
  4.1% | -0.3%
- CCCSc1nnc(N)s1
  -4.0% | i
- O=C(C1CC(=O)N(c2ccc3c(c2)OCCO3)C1)N1CCN(c2ccccc2)CC1 (stereo not given)
  5.9% | -9.4%
- CCOC(=O)C1=C(C)N(CCCC(=O)O)C(=O)NC1c1ccccc1OS(=O)(=O)c1ccc([N+](=O)[O-])cc1 (stereo not given)
  u | u
- O=C(N/N=C/c1cn(-c2ccccc2)nc1-c1cccnc1)c1ccccc1
  -11.3% | -2.8%
- COc1ccc(C)cc1NC(=O)c1ccc2c(c1)N(Cc1cccc(Cl)c1)C(=O)c1ccccc1S2=O (stereo not given)
  -6.3% | i
- N#CCCN1CCN(Cn2c3ccccc3c3ccccc32)CC1
  -4.6% | x
- CC(Sc1nc2c(cc1C#N)CCCCC2)C(=O)O (stereo not given)
  -21.5% | -13.7%
- O=C(CSc1oc(-c2ccco2)nc1S(=O)(=O)c1ccc(Br)cc1)c1ccccc1
  -11.3% | -2.3%
- Cc1cc(C)c(OCC(=O)N(Cc2ccc(N(C)C)cc2)CC2CCCO2)c(C)c1 (stereo not given)
  -20.6% | -14.6%
- Cc1ccc(C)c(S(=O)(=O)N2CCN(C(=O)C3CCN(c4ncnc5sc(C)c(C)c45)CC3)CC2)c1
  -18.6% | -1.9%
- COc1cc(OC)c(C2N(c3ccc(Cl)c(Cl)c3)C(=O)C3CCCN32)cc1OC (stereo not given)
  -15.0% | -12.4%
- Cc1[nH]c(=O)c(C#N)c(C)c1Br
  -13.0% | -14.9%
- CCCN1CCC(=O)N([C@H](CSc2ccc(C)cc2)c2ccccc2)CC1
  u | -21.2%
- CN(C)CCCN(C(=O)c1ccc(S(=O)(=O)N2CCc3ccccc3C2)cc1)c1nc2c(F)cccc2s1
  -10.0% | i
- O=c1cc[nH]c2ccc([N+](=O)[O-])cc12
  -17.0% | -14.9%
- Cc1ccc(NC(=O)C(C)OC(=O)Cn2[nH]c(=O)c3ccccc3c2=O)cc1 (stereo not given)
  -2.8% | i
- COc1cccc2cc(C(=O)OC(C)C(=O)c3ccc(C)cc3)c(=O)oc12 (stereo not given)
  -12.9% | -14.3%
- CC1Sc2ccc(C(=O)Nc3ncccc3O)cc2NC1=O (stereo not given)
  -13.0% | -27.0%
- COc1ccc(N2CCN(C(=O)c3oc4ccccc4c3NC(=O)Cc3ccc(OC)c(OC)c3)CC2)cc1
  -19.5% | u
- Cc1cc(C(=O)OCC(=O)N2CC(=O)Nc3ccccc32)c(C)n1-c1ccccc1
  -18.2% | -5.8%
- Cc1[nH]c2ccccc2c1C(=O)COC(=O)C1CC(=O)N(Cc2ccccc2)C1 (stereo not given)
  -19.0% | x
- CCc1cccc(C)c1NC(=O)CSc1nnc(N)s1
  -10.6% | -10.2%
- C=CCn1c(SCC(=O)Nc2nnc(CC)s2)nnc1-c1cccnc1
  -3.3% | x
- CCN(CC)c1ccc(N=C2C=CC(=O)C=C2NC(C)=O)cc1
  189.9%[activator] | 58.5%[activator]
- CC(=O)c1ccc(OCC(O)CN2CCc3ccccc3C2)cc1 (stereo not given)
  2.0% | u
- COc1cccc(S(=O)(=O)N(C)C[C@H]2OCc3cnnn3CCCC(=O)N([C@H](C)CO)C[C@H]2C)c1
  -9.6% | -5.7%
- Cc1ccc(CSCCNC(=O)c2cccc([N+](=O)[O-])c2)cc1
  -0.2% | -12.9%
- Nc1nc(SCc2ccc(Br)cc2)n[nH]1
  -15.2% | -7.5%
- COc1cc(C)c(S(=O)(=O)NCc2ccc3c(c2)OCO3)cc1C
  -7.6% | i
- CCn1c(SCC(=O)N2CCC(C)CC2)nnc1-c1ccccc1O
  -9.9% | -9.5%
- COc1ccccc1C1C(C(C)=O)=C(C)N=c2s/c(=C\c3cc(OC)c(OC)c(OC)c3)c(=O)n21 (stereo not given)
  -12.8% | -9.2%
- Cc1scc(CN2CCN(c3ccccc3F)CC2)c1C
  -4.2% | -8.5%
- COc1ccc(-c2nc3ccc(N4CCCC4)cc3c(=O)[nH]2)cc1OC
  -24.3% | u
- COCCNc1nc(-c2ccccc2)nc2c1oc1ccccc12
  -3.7% | 1.6%
- CCc1noc(C)c1C(=O)Nc1cc(Cl)ccc1N1CCCC1
  -10.8% | i
- Cc1ccc2cn[nH]c2c1[N+](=O)[O-]
  -17.1% | -9.2%
- CC(C)CNc1oc(-c2ccco2)nc1C#N
  -6.6% | -15.3%
- COc1cccc(NC(=O)c2nnn(Cc3ccc(Br)cc3F)c2N)c1
  1.6% | -4.4%

# An excerpt from above in order of length of the SMILES, ascending.
# Under each structure – Vaccinia Venus | VACV mCherry inh
- Cc1[nH]c(=O)c(C#N)c(C)c1Br
  -13.0% | -14.9%
- Nc1nc(SCc2ccc(Br)cc2)n[nH]1
  -15.2% | -7.5%
- Cc1ccc2cn[nH]c2c1[N+](=O)[O-]
  -17.1% | -9.2%
- CCc1cccc(C)c1NC(=O)CSc1nnc(N)s1
  -10.6% | -10.2%
- O=c1cc[nH]c2ccc([N+](=O)[O-])cc12
  -17.0% | -14.9%
- CC1Sc2ccc(C(=O)Nc3ncccc3O)cc2NC1=O (stereo not given)
  -13.0% | -27.0%
- COCCNc1nc(-c2ccccc2)nc2c1oc1ccccc12
  -3.7% | 1.6%
- CC(=O)c1ccc(OCC(O)CN2CCc3ccccc3C2)cc1 (stereo not given)
  2.0% | u
- CCn1c(SCC(=O)N2CCC(C)CC2)nnc1-c1ccccc1O
  -9.9% | -9.5%
- CCN(CC)c1ccc(N=C2C=CC(=O)C=C2NC(C)=O)cc1
  189.9%[activator] | 58.5%[activator]
- C=CCn1c(SCC(=O)Nc2nnc(CC)s2)nnc1-c1cccnc1
  -3.3% | x
- COc1cccc(NC(=O)c2nnn(Cc3ccc(Br)cc3F)c2N)c1
  1.6% | -4.4%
- Cc1ccc(CSCCNC(=O)c2cccc([N+](=O)[O-])c2)cc1
  -0.2% | -12.9%
- COc1ccc(-c2nc3ccc(N4CCCC4)cc3c(=O)[nH]2)cc1OC
  -24.3% | u
- CCCN1CCC(=O)N([C@H](CSc2ccc(C)cc2)c2ccccc2)CC1
  u | -21.2%
- COc1cccc2cc(C(=O)OC(C)C(=O)c3ccc(C)cc3)c(=O)oc12 (stereo not given)
  -12.9% | -14.3%
- Cc1cc(C)c(OCC(=O)N(Cc2ccc(N(C)C)cc2)CC2CCCO2)c(C)c1 (stereo not given)
  -20.6% | -14.6%
- COc1cc(OC)c(C2N(c3ccc(Cl)c(Cl)c3)C(=O)C3CCCN32)cc1OC (stereo not given)
  -15.0% | -12.4%
- COc1ccc(N2CCN(C(=O)c3oc4ccccc4c3NC(=O)Cc3ccc(OC)c(OC)c3)CC2)cc1
  -19.5% | u
- CN(C)CCCN(C(=O)c1ccc(S(=O)(=O)N2CCc3ccccc3C2)cc1)c1nc2c(F)cccc2s1
  -10.0% | i
- COc1ccccc1C1C(C(C)=O)=C(C)N=c2s/c(=C\c3cc(OC)c(OC)c(OC)c3)c(=O)n21 (stereo not given)
  -12.8% | -9.2%
- Cc1ccc(C)c(S(=O)(=O)N2CCN(C(=O)C3CCN(c4ncnc5sc(C)c(C)c45)CC3)CC2)c1
  -18.6% | -1.9%
- COc1cccc(S(=O)(=O)N(C)C[C@H]2OCc3cnnn3CCCC(=O)N([C@H](C)CO)C[C@H]2C)c1
  -9.6% | -5.7%

# (list continues)
molecule	Vaccinia Venus	VACV mCherry inh
COc1cc(/C=C/C(=O)Nc2nc3ccc(S(=O)(=O)NC(C)C)cc3s2)cc(OC)c1OC	2.0%	-2.7%
O=C(CCC(=O)c1cccs1)OCC(=O)c1ccc(F)cc1	-7.0%	i
CCOC(=O)c1cc(=O)c2ccc(OCc3ccccc3)cc2o1	2.3%	-8.9%
O=C(c1cc(-c2ccccc2O)on1)N1CCCCC1	-14.9%	-14.1%
Cc1ccc(CNC(=O)CN2N=C(c3ccc(C)cc3)CCC2=O)cc1	-8.0%	-8.4%
Cc1ccccc1OCC(=O)NNC(=O)Cc1ccc(S(=O)(=O)N2CCOCC2)s1	-7.5%	i
CN(Cc1ccon1)C(=O)CC1C(=O)NCCN1CC1CCCCC1 (stereo not given)	3.5%	-6.5%
Cc1ccc(CNC(=O)CSc2c3c(nc4ccc(Cl)cc24)CCCC3)cc1	-22.2%	-19.5%
COC(=O)C1=C(C(=O)OC)SC2(S1)C(C(=O)OC)=C(C(=O)OC)SC1=C2c2cccc(C)c2NC1(C)C	-5.0%	-12.3%
CC1O[C@@H](O[C@H](C)CC[C@@H](C)O[C@H]2OC(C)[C@@H](O)C[C@H]2O)C(O)C[C@H]1O (stereo not given in full)	-4.1%	-3.1%
CCCC1S/C(=N/N=C/c2ccco2)NC1=O (stereo not given)	-4.9%	-5.9%
O=C(CSc1ncnc2sccc12)NC1CCS(=O)(=O)C1 (stereo not given)	-9.1%	-13.8%
O=C(O)C1CC=C(Cl)CC1C(=O)NC1CCCCC1 (stereo not given)	-3.9%	i
Cc1nc2ccccc2c(=O)n1-c1ccccc1[N+](=O)[O-]	-1.5%	-8.7%
NC(=O)CSc1ccc(-c2ccc(F)cc2)nn1	-5.3%	-22.1%
COc1cccc(C(=O)COC(=O)CCC(=O)NC2CCCCC2)c1	-9.8%	i
CCN1/C(=C/C(=O)c2ccco2)Sc2ccccc21	-24.4%	x
CCN1CN(Cc2ccco2)CNC1=S	-10.7%	-16.2%
Cc1ccc(S[C@@H](CCN2CC[C@H](O)CCC2=O)c2ccccc2)cc1	-13.0%&-21.8%	-7.0%
CC1Cc2c([nH]c(=O)n(-c3ccccc3)c2=O)O1 (stereo not given)	-2.1%	-6.2%
C/C(=N/NC(=O)CSc1nc2ccccc2s1)c1ccncc1	-14.0%	i
NNC(=O)CNC(=O)C12CC3CC(CC(C3)C1)C2	-7.9%	-9.4%
O=C(Nc1ccc(N2CCN(C(=O)c3ccco3)CC2)c(Cl)c1)c1cc2ccccc2o1	15.8µM*	11.2µM*
O=C(O)CCCN1C(=O)/C(=C\c2ccccc2OCc2ccccc2)SC1=S	-1.4%	i
CCN(CC(=O)Nc1ccc(NC(C)=O)cc1)C(=O)c1ccc2ccccc2c1	-17.7%	-0.5%
CN(C(=O)c1nn(C)c2c1CSc1ccccc1-2)c1ccc(F)cc1	6.4%[7.34 µM]	22.5%[7.34 µM]
Cc1nc2c(c(N3CCOCC3)n1)OCC(=O)N2	-5.2%	x
Cc1cccc(N=Nc2c(O)[nH]c3ccc(F)cc23)c1	-2.5%	-8.0%
COC(=O)CN1C(=O)C2(C(C#N)=C(N)Oc3cc(C)oc(=O)c32)c2ccccc21 (stereo not given)	-6.7%	i
O=S1(=O)CCOC[C@H](Cc2ccccc2)N1Cc1ccccc1Br	-20.8%&-25.8%	-14.0%
Cc1ccccc1CSCC(=O)NNC(=S)NCC1CCCO1 (stereo not given)	-11.2%	-4.3%

# Arranged by formula weight (rising): some entries from above
molecule	Vaccinia Venus	VACV mCherry inh
Cc1nc2c(c(N3CCOCC3)n1)OCC(=O)N2	-5.2%	x
NNC(=O)CNC(=O)C12CC3CC(CC(C3)C1)C2	-7.9%	-9.4%
Cc1cccc(N=Nc2c(O)[nH]c3ccc(F)cc23)c1	-2.5%	-8.0%
